gsp antagonist: antagonizes gsp, the McCune-Albright syndrome mutation. gsp-mutant cells, cAMP HTRF, 30 min; control for the full effect not named in the record. Potency, µM (doses to about 76.9 µM), for inactives: at the highest dose activity change, negative = inhibition, usual class: inhibitors. 0.4% of 340,000 active; active = falling curve of any shape with a large fitted effect; inconclusive = falling curve, mostly with a smaller effect; inactive = flat or rising curve; cell line not stated here;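 note: intracellular cAMP measured with PDE inhibitor Ro 20-1724 present during compound exposure; potency is the fitted concentration of half-maximal effect; % is set by controls: 0 for no effect and ±100 for the full control effect; nearly all actives have a fitted effect of over 65% in size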
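HTRF cAMP measurement after 30 min RT detection following 30 min, 37C compound treatment alongside […] (added as 300 uM solution) in G418-selected cells seeded at 2000/well and grown 16–24 h.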
Menin MLL FP FL: menin-MLL binding inhibition, fluorescein peptide; Fluorescence polarization, fluorescein-MLL peptide displacement from menin; FP activity change, % at 61.4 µM; 290,000 tested, under 10 active; inconclusive = falling polarisation curve, or a change in total fluorescence; inactive = total fluorescence flat and polarisation flat or rising; no compound was filed as active; the % refers to the polarisation; negative = inhibition;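 note: % of control where 0% means no effect; inhibitors lower the polarisation; unlabelled MLL peptide was the positive control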
gsp agonist: gsp mutant agonism | gsp mutant cells, cAMP HTRF, 30 min; control for the full effect not named in the record | Potency, µM (series often up to 76.9 µM), inactives show at the top dose activation (cAMP increase), usual class: activators | 0.13% of 340,000 active; active = well fitted activation curve with a large enough effect; inconclusive = small, poorly fitted or top-dose-only effect, or another doubt; inactive = no such curve, though single readings can be large or run the other way; cell line not stated here;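 note: phosphodiesterase inhibitor Ro 20-1724 added with compounds to block cAMP breakdown; potency is the fitted concentration of half-maximal effect; nearly all actives have a fitted effect of over 60% in size; about a fifth of the inactives were tested at one dose only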
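Cells stably selected in G418 were plated at 2000/well, grown 16-24 hr, then given compounds in DMSO with the PDE inhibitor […] (300 uM solution added) for 30 min at 37C; cAMP was read by HTRF.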
TRPML1 agonist: agonists of human TRPML1 channel. activation, % (test concentration not listed). Q9GZU1. TRPML1-expressing cells, Ca2+ dye fluorescence, FDSS; host cell line not named in the record; reference of the full effect not given here. 0.12% of 410,000 active; in the data active = activation above about 50%; inconclusive = about 30% to 50%; inactive = below about 30%; note: 0% is about no effect; the text of the record puts the active cut at 80%
Target sequence (Q9GZU1 whole entry, looked up): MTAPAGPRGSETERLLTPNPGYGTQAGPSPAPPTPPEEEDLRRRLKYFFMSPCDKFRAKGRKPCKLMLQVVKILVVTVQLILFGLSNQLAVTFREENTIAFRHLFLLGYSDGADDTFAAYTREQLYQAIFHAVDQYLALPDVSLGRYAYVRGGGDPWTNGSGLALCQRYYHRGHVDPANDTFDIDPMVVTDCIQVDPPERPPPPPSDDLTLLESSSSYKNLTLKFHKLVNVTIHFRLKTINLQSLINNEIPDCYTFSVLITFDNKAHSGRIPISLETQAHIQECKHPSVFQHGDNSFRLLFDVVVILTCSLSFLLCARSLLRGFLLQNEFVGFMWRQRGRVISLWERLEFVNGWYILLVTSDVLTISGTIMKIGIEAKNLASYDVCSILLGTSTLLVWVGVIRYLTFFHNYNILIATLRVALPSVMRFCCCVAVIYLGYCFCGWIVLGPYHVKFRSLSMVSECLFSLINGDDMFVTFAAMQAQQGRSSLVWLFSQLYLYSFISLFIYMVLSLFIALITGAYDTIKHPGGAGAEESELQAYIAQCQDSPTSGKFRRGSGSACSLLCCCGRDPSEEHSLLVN
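Kinetic FDSS Ca2+ read in Tet-induced TRPML1-DL cells (ABD Ca8 dye plus quencher, 45-90 min RT loading): baseline, then compound, then 110 s agonist window; EC80 agonist 54-4 at 4uM final added afterwards for a 110 s antagonist window.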
ClpP mod: qHTS Assay for Activators of ClpP; ATP-dependent Clp protease proteolytic subunit (Bacillus subtilis (strain 168)), P80244; purified B. subtilis ClpP, FRET peptide cleavage, 20 min; Potency, µM (titrated, usually from 57.5 µM), inactives show at the top dose activity change, negative = active; 1.9% of 340,000 active; active = well fitted falling curve with a large enough effect; inconclusive = small, poorly fitted or top-dose-only effect; inactive = no such curve, though single readings can be large or run the other way; note: potency is the fitted concentration of half-maximal effect; the source files actives as falling curves though it sought activators and does not explain the sign; nearly all actives have a fitted effect of over 65% in size; many hits overshoot -100%
Target sequence (P80244 whole entry, looked up): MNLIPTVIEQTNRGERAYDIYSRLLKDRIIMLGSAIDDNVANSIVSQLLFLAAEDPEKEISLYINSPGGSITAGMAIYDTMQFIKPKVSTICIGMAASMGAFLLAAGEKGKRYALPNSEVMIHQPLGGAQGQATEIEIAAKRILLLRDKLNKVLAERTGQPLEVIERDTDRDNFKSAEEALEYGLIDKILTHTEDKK
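ClpP 10 microg/mL final, pH 8 Tris/KCl buffer with BSA, glycerol, Tween-20; compound pinned in; FRET-FV substrate; RT 20 min; Ex320/Em430; ΔFRET vs ADEP 5.8 microM, DMSO, no enzyme.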
TRPML1 inh: human mucolipin-1 channel inhibition. 0.02% of 390,000 active. AID 624415. activity change, negative = inhibition, % (no concentration beside the values). TRPML1-inducible cells, Ca2+ dye fluorescence, FDSS; stronger effect = lower value; inhibition of EC80 agonist-evoked calcium signal; in the data active means activity change below about -50%; inconclusive means about -30% to -50%; inactive means above about -30%;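 note: stimulus is agonist 54-4 at its EC80 concentration; % is set by controls: 0 for no effect and ±100 for the full control effect; compound concentration not given in the record; the text of the record puts the active cut at -80%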
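TRPML1-DL cells, Tet-induced overnight (~16 h, 37 °C) at 1,500 cells/well, were loaded with Ca8 no-wash dye plus quencher for 45-90 min at room temperature. Compounds were pinned during FDSS kinetic reading; agonist 54-4 at EC80 (4 uM final) then added.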
Active calls of the source: *; ? = inconclusive; · = no result given; & = joins results of further samples; [ ] = another dose, or the depositor's remark.

SMILES	gsp antagonist	Menin MLL FP FL	gsp agonist	TRPML1 agonist	ClpP mod	TRPML1 inh
CC(=O)C1=C(O)C(=O)N(CCCn2ccnc2)C1c1ccc(Br)cc1 (centres undefined)	2.9%	-2.5	25.8%	-0.5	·	3.1
COc1ccc2[nH]c3c(=O)n(CCCCC(=O)N4CCC(C(N)=O)CC4)c(=S)[nH]c3c2c1	-3.6%	-1.8	-2.7%	-0.3	16.9%	15.9
O=C(CCS(=O)(=O)c1ccc(Cl)cc1)Oc1ccc2c(c1)OCO2	8.2%[15.4 µM]	0.7	-19.2%	0.4	-1.6%	-9.1
COc1ccccc1-c1noc(CCC(=O)Nc2cccc(C)c2)n1	1.9%	2.2	?	-0.1	-17.8%	0.1
Cc1ccc(C(=O)N[C@H](C(=O)OCc2cc(=O)n3c(n2)sc2ccccc23)C(C)C)cc1	-18.3%	5.3	-23.9%	4.1	0.6%	-9.9
Cc1c(O)cc2n(c1=O)-c1ccc(Cl)cc1C2(C)C	?	4.8	?	0.4	-2.5%	33.6
CN(C)/C=N/c1sc2c(c1C#N)CCCCC2	-1.1%	-1.1	3.5%	3.5	-1.9%	15.9
COc1ccc(C)cc1-n1nnnc1SCC(=O)NC1CCCC1	0.8%	·	5.9%[15.4 µM]	2.7	·	16.8
Cc1ccnc(NC(=O)c2c(-c3ccccc3Cl)noc2C)c1	9.1%	1.2	5.6%	0.6	-0.8%	0.3
Cc1cc2oc3ccc(NCCCn4ccnc4)cc3c(=O)c2cc1C	0.1%	·	·	6.5	0.8%	19.7
COc1cccc(NC(=O)CCN2C(=O)c3ccccc3Sc3ncccc32)c1	5.9%	-7.2	?	0.1&-0.4	0.2%&-1.6%	-12.5&86.8
CN(C)c1ccc(C(O)P(=O)(OCc2ccccc2)c2ccc(N(C)C)cc2)cc1 (centres undefined)	-9.5%	0.6	13.1%	1.3	·	29.6
O=C(COC(=O)c1ccncc1)Nc1ccccc1	15.8%	-2.4	1.6%[15.4 µM]	-1.1	?	-5.9
O=C(O)c1cccnc1Nc1ccc(Cl)cc1	-27.4%	1.1	17.2%	-0.4	·	-10.4
CCn1c(=O)n(C)c2c(=O)n(C)c(=O)n(C)c21	4.8%	·	?	0.3	·	0.9
CCN(CC)C(=O)C(=O)N/N=C/c1cccc(Br)c1	5.8%	0.3	-39.4%[inhibitor]	3.0	0.4%	-1.0
O=C(CN(Cc1cccs1)S(=O)(=O)c1ccc(S(=O)(=O)NC2CCCCC2)cc1)Nc1ccccc1	-18.2%	4.6	2.4%[15.4 µM]	0.1	-1.5%	-1.0
Cc1c(CCC(=O)NCCc2ccccc2)c(=O)oc2cc(O)ccc12	·	·	·	1.0	3.9%	6.4
O=C(COc1ccccc1Cl)N1CCCCCCC1	-0.9%	2.0	3.3%[15.4 µM]	-0.3	-1.1%	2.2
COc1ccccc1Oc1ccc(S(=O)(=O)N2CCN(C)CC2)cc1	6.2%	3.8	14.0%[15.4 µM]	-0.2	·	13.0
CN(C(=O)COC(=O)Cc1c(Cl)cccc1Cl)c1c(N)n(Cc2ccccc2)c(=O)[nH]c1=O	-11.3%	·	?	0.2	0.6%	-1.6
Cc1cc2ccccc2n1-c1ccc(C(=O)N2CCC(C(=O)NCc3ccccc3Cl)CC2)s1	·	·	·	0.3	-10.2%	22.1
CSc1cccc(NC(=O)N2CCN(C)CC2)c1	-2.7%	4.2	-28.7%	0.1	-0.5%	0.7
S=c1[nH]cnc2sc(Nc3ccccc3)nc12	22.5%	-0.1	-65.9%[inhibitor]	0.9	-0.4%	5.4
O=C(Oc1ccccc1)c1ccc2nccnc2c1	-2.3%	4.2	-3.1%	-0.2	-3.2%	-19.2

Overlap with the part before: two compounds; new compounds follow.
SMILES	gsp antagonist	Menin MLL FP FL	gsp agonist	TRPML1 agonist	ClpP mod	TRPML1 inh
S=c1[nH]cnc2sc(Nc3ccccc3)nc12	22.5%	-0.1	-65.9%[inhibitor]	0.9	-0.4%	5.4
O=C(Oc1ccccc1)c1ccc2nccnc2c1	-2.3%	4.2	-3.1%	-0.2	-3.2%	-19.2
COCCCn1nnnc1SCC(=O)N1c2ccccc2CC1C (centres undefined)	3.6%	-0.3	24.6%	0.4	-0.1%	42.0
O=C(CN(Cc1ccccc1)S(=O)(=O)c1ccccc1)N/N=C/c1ccccc1C(=O)O	1.0%	-3.7	12.6%	-0.1	·	-8.6
CCCN1CCN(C(=O)c2ccc(Sc3ccc(C)cc3)c(NC(C)=O)c2)CC1	15.6%	-0.6	2.9%	-0.2	-0.2%	-6.5
Cc1ccc(NC(=O)CSCC(=O)NCCc2ccccn2)c(C)c1	·	2.8	17.8%[15.4 µM]	-0.5	·	7.7
COc1ccc(C(=O)NC(C)Cn2nc(C)cc2C)cc1OC1CCN(C(C)=O)CC1 (centres undefined)	-1.5%	·	-34.8%[inhibitor]	0.5	-2.9%	-2.8
COC(=O)Cn1cnc2c(cnn2-c2ccccc2)c1=O	-2.0%	1.8	2.0%	0.2	-8.7%	14.2
C/C(=N\NC(=O)c1ccncc1)c1ccc(NC(=O)c2ccc(Cl)cc2)cc1	5.5%	0.2	28.5%	-0.4	28.4%	4.3
S=C(NCc1cccnc1)Nc1ccc(Oc2ccccc2)cc1	-12.4%	-6.2	-24.6%	1.3	-1.9%	-5.4
Cc1c(C(=O)N2CCOCC2)sc2ncn(CC(=O)N3CCC(C)CC3)c(=O)c12	2.0%	0.7	?	0.5	3.16µM*	4.8
COc1ccc(NC(=O)c2nc[nH]c2C(=O)N2CCN(C(=O)OC(C)(C)C)CC2)cc1	-12.6%	-0.1	·	1.7	-0.9%	14.6
CC(C)(C)c1csc(NC(=O)c2ccc(Cl)s2)n1	?	3.5	-18.2%	-0.1	-3.7%	7.4
Cc1ccc(C(=O)NC2CC3CCCC(C2)N3Cc2ccccc2)cc1 (centres undefined)	20.6%	-4.1	5.4%[15.4 µM]	0.4	-1.1%	1.9
COc1cc(NC(=S)NC2CC2)c(OC)cc1Cl	-18.8%	0.7	1.1%[15.4 µM]	-0.8	·	9.2
O=C(COC(=O)CNC(=O)c1ccc(F)cc1)Nc1cccc(S(=O)(=O)N2CCCC2)c1	-3.3%	0.9	-0.7%[15.4 µM]	0.6	·	-4.5
CC1CCCN(CCCCOc2cccc(Br)c2)C1 (centres undefined)	5.8%	-1.3	-21.9%	0.0	-1.3%	-2.9
Cn1nc(C(F)(F)F)c(C(=O)Nc2ccc(Cl)cc2)c1Cl	-4.1%	-0.1	14.6%	0.6	2.5%	6.5
Cc1cccc(C)c1NC(=S)N/N=C/c1ccc(OCCC(C)C)cc1	-12.9%	1.7	-11.9%	1.1	3.0%	-14.0
CCCCc1cc(=O)oc2cc(OCC(=O)N(CC)CC)c(Cl)cc12	1.8%	-0.2	4.6%	0.0	3.8%	-4.3
O=C(Nc1ccccc1)c1ccco1	6.7%	-0.2	2.9%	0.2	-0.5%	24.9
O=C(NCc1ccccc1)NC12CC3CC(CC(C3)C1)C2	9.4%	2.5	-0.5%	1.8	-0.3%	-0.8
O=C(N[C@H](CO)c1ccccc1)[C@H]1O[C@@H](n2ccc(=O)[nH]c2=O)[C@H](O)[C@@H]1O	·	·	·	-0.1	0.7%	-28.5
c1ccc2c(CN3CCSCC3)cccc2c1	-9.7%	-0.4	2.6%	-0.9	-0.5%	3.4
Cc1ccc(S(=O)(=O)N2CCN(C(=O)/C=C/c3ccccc3)CC2)cc1C	?	·	10.6%	2.5	-1.3%	6.2
O=C(COC(=O)c1ccco1)Nc1ccccc1	0.9%	0.4	-18.6%	-0.2	0.8%	12.3
CCn1c(SCC(=O)N2CCCCC2)nc2c1c(=O)n(C)c(=O)n2C	-5.8%	-0.3	?	0.7	·	27.4

Next section.
SMILES	gsp antagonist	Menin MLL FP FL	gsp agonist	TRPML1 agonist	ClpP mod	TRPML1 inh
Cc1ccc(C(=O)NC(C)c2ccc3c(c2)OCO3)s1 (centres undefined)	-0.8%	1.6	-1.4%	-0.2	1.3%	-4.3
CC[C@@H](C)[C@H](N)C(=O)NC[C@H]1O[C@@H](n2cnc3c(N)ncnc32)[C@H](O)[C@@H]1O	-4.8%	·	·	-0.3	-5.0%	-17.7
Cc1cc(N2CC(=O)N(CCc3ccccc3)C(=O)C2)n2ncnc2n1	-3.2%	?	23.7%	0.0	0.1%	-1.1
Cc1cccc2nc(-c3cccnc3)c(NCCC(C)C)n12	-0.8%	-0.3	6.5%[15.4 µM]	-0.2	-2.2%	-6.8
CC1CC(C)CN(CCC(=O)Nc2ccc3c(c2)CCC3)C1 (centres undefined)	4.9%	-5.5	-46.7%[inhibitor]	3.0	-1.4%	18.5
CCN1CCN(C(=S)NC(=O)c2cccs2)CC1	5.5%	1.4	21.7%[15.4 µM]	0.5	·	10.4
COc1cccc(CN(C(=O)COc2ccc(C)cc2)C2CCS(=O)(=O)C2)c1 (centres undefined)	-9.5%	·	20.9%	-0.5	0.3%	8.8
Cc1ccc(-c2[nH]nc3c2C(c2ccoc2)C(C#N)=C(N)O3)cc1C (centres undefined)	-2.5%	3.3	?	0.2	1.5%	2.3
O=C(NCCc1ccccc1)c1ccc(Cn2c(SCc3cccc(F)c3)nc3cccnc32)cc1	·	·	·	2.0	4.6%	7.7
COc1ccc(/C=N/NC(=O)c2ccccc2)cc1OS(=O)(=O)c1ccccc1	-13.7%	0.6	-18.4%[15.4 µM]	1.3	·	-12.7
C=CCn1c(=NC(=O)CN2C(=O)CCC2=O)sc2cc(S(N)(=O)=O)ccc21	-12.4%	1.7	5.5%[15.4 µM]	0.7	-16.4%	24.5
C(=C\c1ccccc1)/C=N/n1cnnc1	4.0%	1.2	0.8%	0.3	1.2%	-0.5
COC(=O)c1scc(-c2ccc(C)cc2)c1S(=O)(=O)Nc1ccc(F)cc1F	·	·	·	1.6	-0.9%	45.9
C=CCn1c(C(c2ccccc2)c2ccccc2)n[nH]c1=S	-2.8%	1.2	-27.9%	2.1	1.0%	8.2
CC(C)[C@H](CO)Nc1nc(Nc2ccc(Cl)c(C(=O)O)c2)c2ncn(C(C)C)c2n1	5.3%	-0.2	-63.8%[inhibitor]	-0.9	-2.0%	4.3
O=C(Nc1cccc(F)c1)c1ccc(Cn2cc([N+](=O)[O-])cn2)o1	-8.4%	-5.2	-2.7%[15.4 µM]	0.0	·	76.1
CCOc1ccccc1NC(=O)CSc1nnc2ccc(-c3ccncc3)nn12	14.4%	-1.0	27.9%	·	0.0%	·
N#C/C(=C(/O)c1ccc(F)cc1)c1nc2ccccc2s1	-24.0%	8.1	-6.7%[15.4 µM]	0.4	·	12.0
CCN(CC)C(=O)CN1C(=O)C(=O)c2ccccc21	-0.2%	1.2	-8.5%	-0.6	·	-16.6
Cc1ccc(Cc2c(-c3ccc(F)cc3)nc3ccc(Br)cn23)cc1	·	·	·	2.5	-16.4%	64.3
CC1(C)NC(=O)N(CC(=O)OCC(=O)Nc2cccc(S(N)(=O)=O)c2)C1=O	-4.3%	-1.8	-41.0%[inhibitor]	0.3	0.9%	3.8

Assay outcomes from PubChem BioAssay.
